# Screening results (PubChem BioAssay)
# Mtb betalactam: beta-lactam sensitization of Mtb H37Rv; M. tuberculosis H37Rv growth with meropenem, percent inhibition; hits of this screen are not shown here; inhibition, % at 25 µM; 330,000 tested, 0.27% active; AID 434955;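 active means about 74% or more and at least 40 points above the plate without the antibiotic, then above 30% in a dose series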;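 further: growth measured after seven days incubation then overnight dye step; 0% = bacteria only wells and 100% = bacteria with antibiotic; twin plates without the antibiotic show which effects depend on it; some results filed as inactive read as strong as hits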
# * = called active by the depositor. Not all compounds are listed; the hit share may differ from the screen's.
item	SMILES	Mtb betalactam
1	CC1(C)Cc2cccc(OCC(=O)OCc3nnc(-c4ccc([N+](=O)[O-])cc4)o3)c2O1	-2
2	CSc1cccc(NC(=O)COC(=O)C2CCN(S(=O)(=O)c3ccccc3)CC2)c1	1
3	C[C@H](CO)N1C[C@H](C)[C@@H](CN(C)C)Oc2c(NS(=O)(=O)c3ccccc3)cccc2C1=O	-1
4	CCOc1ccc(S(=O)(=O)Nc2cccc(C(=O)NCCCn3ccnc3)c2)cc1	-9
5	COC(=O)c1cccc(NC(=O)c2cccc(N3C(=O)CCC3=O)c2)c1	-2
6	COc1ccc(NC(=O)COC(=O)c2cc(Cl)ccc2O)cc1S(=O)(=O)N1CCCCC1	-1
7	Cc1ccc2nc(SC(C)C(=O)NC3CCCC3)[nH]c2c1 (stereo not given)	-2
8	CCCSc1ccc([C@@H]2[C@@H]3C(=O)N(CC)C(=O)[C@@H]3[C@]3(C(=O)OC)CCCCN23)cc1OC	-6
9	Cc1cccc(C(=O)OCC(=O)Nc2ccc3c(c2)OCCO3)c1	5
10	Cc1ccc(S(=O)(=O)N2CCCCC2)cc1NC(=O)CN1C(=O)c2ccccc2S1(=O)=O	-2
11	CC1CS(=O)(=O)CCN1N=Cc1ccc([N+](=O)[O-])o1 (stereo not given)	83
12	COc1ccc(NC(=O)Nc2ccc3c(c2)C(=O)N([C@H](C)CO)C[C@H](C)[C@@H](CN(C)C(=O)Nc2ccccc2)O3)cc1	-1
13	CCCCn1c(N)c(N(CC)C(=O)CCNC(=O)c2ccc(Cl)cc2)c(=O)[nH]c1=O	-1
14	COc1ccc(-c2sc3cc4c(cc3c2C#CC2(N)CCCCC2)OCO4)cc1	100
15	COc1cc(/C=C/C(=O)OCC(=O)NC2CC2)cc(OC)c1OC	-8
16	CC(NC(=O)c1ccc([N+](=O)[O-])o1)C1CC2CCC1C2 (stereo not given)	100
17	CCOC(=O)/C=C/[C@H]1CC2(CCO1)SCCCS2	6
18	C=CCC[C@H](Cc1ccc(F)cc1)C(=O)OC[C@H](Cc1c[nH]c2ccccc12)NC(=O)[C@H](CC=C)CC(=O)NCCO	-2
19	Cc1ccc(CN(C)C(=O)c2cc(S(=O)(=O)N3CCOCC3)ccc2F)o1	-1
20	C=CC[C@@H](CC(=O)N(CCO)Cc1ccccc1)C(=O)N[C@H](COC(=O)[C@@H](CC=C)CC(=O)OC(C)(C)C)Cc1c[nH]c2ccccc12	-4
21	Cc1ccc(CNC(=O)CN(C)S(=O)(=O)c2ccc(F)cc2)cc1	-4
22	NC(=O)c1ccc(NC(=O)COC(=O)c2ccc3ccccc3n2)cc1	1
23	COc1ccc(S[C@@H](CCN2CC[C@H](C)CCC2=O)c2ccccc2)cc1	3
24	CCOc1ccc(CCNC(=O)CSCC(=O)Nc2ccc(OC)cc2)cc1OCC	68
25	Sc1nnc(-c2ccc(Cl)cc2)n1Cc1ccccc1	6
26	COc1cccc(C(=O)NOCc2ccccc2)c1OC	-3
27	COc1ccccc1CNC(=O)COC(=O)c1ccncc1	-6
28	C=CCn1c2ccccc2c(=O)c2cc(C#CC[C@@H](C)O)ccc21	24
29	CC1CCCCC1NC(=O)CCS(=O)(=O)c1ccc(Cl)cc1 (stereo not given)	-1
30	COc1ccc(C(CNS(=O)(=O)c2ccc(NC(C)=O)c(OC)c2)N2CCCCC2)cc1 (stereo not given)	-3
31	COc1ccc(OC)c(NC(=O)CN(C)CCOc2ccc(Br)cc2)c1	8
32	CCC(CO)Oc1cc(NC(=O)c2ccccc2)c2ncn(C(C)C)c2c1 (stereo not given)	-1
33	CCN(C(=O)COC(=O)c1cc(OC)ccc1Br)C1CCS(=O)(=O)C1 (stereo not given)	-7
34	CCC(CO)Oc1cc(NCc2cccc(C)c2)c2ncn(C(C)C)c2c1 (stereo not given)	-2
35	COc1ccccc1NS(=O)(=O)c1ccc(C(=O)NCC(c2ccc(F)cc2)N2CCOCC2)cc1 (stereo not given)	-6
36	C=CCC[C@H](Cc1ccc(F)cc1)C(=O)OC[C@@H](C)NC(=O)[C@@H](CC=C)CC(=O)N[C@@H](CO)Cc1ccccc1	-1
37	O=C(CN1C(=O)NC2(CCCCCC2)C1=O)c1cccs1	0
38	CCN(CC)S(=O)(=O)c1ccc(NC(=O)CCNC(=O)c2ccco2)cc1	-3
39	O=C(COC(=O)Cc1ccc(Cl)cc1Cl)NC1CC1	6
40	COC(=O)CCN1CCN(S(=O)(=O)c2ccc3c(c2)OCCO3)CC1	-8
41	COc1ccc(S(=O)(=O)N2CCOCC2)cc1NC(=O)CSc1ncccn1	-10
42	O=C(C[C@@H]1C/C=C\C[C@H](NC(=O)OCC2c3ccccc3-c3ccccc32)C(=O)OC[C@@H]2CCCN2C1=O)N[C@@H](CO)Cc1ccccc1	-8
43	CN(CCOc1ccccc1Cl)Cc1ccccc1	-5
44	O=C(CSc1n[nH]c(-c2ccncc2)n1)Nc1ccc(F)cc1	-3
45	COCc1nnc(NC(=O)c2c(-c3c(Cl)cccc3Cl)noc2C)s1	4

# Laid out differently: results already given
[38] CCN(CC)S(=O)(=O)c1ccc(NC(=O)CCNC(=O)c2ccco2)cc1
  Mtb betalactam: -3

[39] O=C(COC(=O)Cc1ccc(Cl)cc1Cl)NC1CC1
  Mtb betalactam: 6

# Other structures follow:
item	SMILES	Mtb betalactam
46	Cc1ccc(COn2nnc3ccc(S(=O)(=O)N4CCOCC4)cc32)cc1	1
47	Clc1ccccc1-c1ccc2ncnc(NCc3cccnc3)c2c1	7
48	COc1ccc(C(=O)NCCCSc2ccccc2)cc1F	-2
49	Cc1cccc(C)c1NC(=O)CNC(=O)c1ccc(N2CCCC2)c([N+](=O)[O-])c1	-7
50	Cc1nnc(SCC(=O)NNC(=O)COc2ccc(Br)cc2)n1C	-5
51	CCN(CC)S(=O)(=O)c1ccc(N2CCOCC2)c(NC(=O)c2ccc(=O)n(C)n2)c1	-1
52	COc1ccc(NC(=O)c2ccc(Cl)c(S(=O)(=O)N3CC(C)OC(C)C3)c2)cn1 (stereo not given)	2
53	Cc1cc(NC(=O)COC(=O)c2ccccc2Cl)no1	-4
54	CCS(=O)(=O)Nc1cccc(C(=C2CCCCC2)c2cnc[nH]2)c1	-5
55	Cc1ccc(-n2nnnc2SCC(=O)c2c(N)n(C3CC3)c(=O)[nH]c2=O)c(C)c1	-3
56	CC1CCN(C(=O)c2ccccc2NC(=O)c2cccc(S(=O)(=O)N(C)C)c2)CC1	-7
57	COc1ccc(NC(=O)Cc2ccc(Cl)cc2)cc1S(=O)(=O)N1CCCCC1	-8
58	COc1ccc(COC(=O)c2ccc(S(=O)(=O)N3CCCCC3)cc2)cc1OC	-2
59	Cc1nnc(SCC(=O)N(CC(C)C)C2CCS(=O)(=O)C2)n1N (stereo not given)	-4
60	Cc1nn(CC(=O)NC2CCS(=O)(=O)C2)c(C)c1S(=O)(=O)N(C)C (stereo not given)	-1

# The closing two compounds of the part above open the next one.
item	SMILES	Mtb betalactam
59	Cc1nnc(SCC(=O)N(CC(C)C)C2CCS(=O)(=O)C2)n1N (stereo not given)	-4
60	Cc1nn(CC(=O)NC2CCS(=O)(=O)C2)c(C)c1S(=O)(=O)N(C)C (stereo not given)	-1
61	COc1cccc(-c2noc(Cn3nc(C(=O)O)c4ccccc4c3=O)n2)c1	-3
62	Cc1cccc(-c2ccc3ncnc(NCc4cccs4)c3c2)c1	94
63	CCN(CC(=O)Nc1ccc(NC(C)=O)cc1)C(=O)COc1ccccc1-c1ccccc1	3
64	COc1ccc(NC(=O)CO/N=C/C(=O)Nc2ccccc2C)c([N+](=O)[O-])c1	36
65	N[C@@H]1C[C@H]1c1ccccc1	-2
66	Cc1ccc(NC(=O)CN(C)C(=O)c2ccc(Cl)c(S(=O)(=O)NCc3ccco3)c2)cc1	2
67	COc1ccc(NS(=O)(=O)c2cc(NC(=O)COc3ccc(OC)cc3)ccc2N2CCOCC2)cc1	-1
68	CC(C)CCOc1ccc(C(=O)NNC(=O)CNC(=O)c2ccccc2F)cc1	-5
69	O=C(Nc1cccc(S(=O)(=O)N2CCCC2)c1)c1ccc(Cl)nc1	-9
70	COc1cc2ccccc2cc1C(=O)N1CCN(c2ccccc2O)CC1	65
71	CC(NS(=O)(=O)c1cc(C(F)(F)F)ccc1Cl)C(=O)N(C)C1CCN(C)CC1 (stereo not given)	4
72	Cc1cc(C)c(NC(=O)CNC(=O)COC(=O)Cc2ccccc2C)c(C)c1	-5
73	N#Cc1cnn2c(-c3cccc([N+](=O)[O-])c3)ccnc12	7
74	Cc1ccccc1C(=O)N1CCC(C(=O)NN2C(=O)NC3(CCC(C)CC3)C2=O)CC1 (stereo not given)	-3
75	CC(NC(=O)c1cc2c(=O)n3ccccc3nc2n(CC2CCCO2)c1=N)c1ccccc1 (stereo not given)	4
76	NS(=O)(=O)c1cccc(NC(=O)c2ccc(S(=O)(=O)N3CCCCCC3)cc2)c1	-7
77	CC(=O)c1cccc(NC(=O)CN2C(=O)NC(C)(C)C2=O)c1	0
78	CC(=O)Nc1ccc(NC(=O)C(C)OC(=O)CCSc2ccccc2Cl)cc1 (stereo not given)	-1
79	O=C(Cc1ccsc1)N1CCN(S(=O)(=O)c2ccccc2F)CC1	-2
80	COc1ccc(CCN(C)C(=O)c2ccc3c(=O)n4c(nc3c2)CCCCC4)cc1OC	2
81	Cc1noc(C)c1-c1ccc2ncnc(NCC3CCCCN3C)c2c1 (stereo not given)	2
82	O=C(C[C@@H]1C/C=C/CC[C@@H](Cc2ccc(F)cc2)C(=O)O[C@@H](c2ccccc2)CNC1=O)NCCO	-2
83	O=C(NCCc1ccccc1)c1cccc2c1C(=O)c1ccc(N3CCOCC3)cc1S2(=O)=O	4
84	C[C@H]1CN([C@@H](C)CO)C(=O)Cc2cc(NC(=O)C3CC3)ccc2O[C@H]1CN(C)Cc1ccc(Oc2ccccc2)cc1	64
85	CCN(CC(=O)Nc1cccc(S(=O)(=O)N(C)c2ccccc2)c1)Cc1cccs1	-4
86	O=C(N[C@H]1C/C=C\C[C@H](CC(=O)N(CCO)Cc2ccccc2)C(=O)N[C@@H](c2ccccc2)COC1=O)OCC1c2ccccc2-c2ccccc21	4
87	Cc1ccc(C(=O)OCC(=O)N(Cc2ccccc2)C(C)C)cc1C	-1
88	Cc1ccc(S(=O)(=O)Nc2ccc(OCC(=O)N3CCOCC3)cc2)c(C)c1NS(C)(=O)=O	-5
89	CCc1ccc(OCC(=O)NNC(=O)CNC(=O)c2ccc(Br)o2)cc1	-4
90	Cc1ccccc1C=O	-6

# Given with each value named: entries from further up.
24) CCOc1ccc(CCNC(=O)CSCC(=O)Nc2ccc(OC)cc2)cc1OCC
  Mtb betalactam = 68
8) CCCSc1ccc([C@@H]2[C@@H]3C(=O)N(CC)C(=O)[C@@H]3[C@]3(C(=O)OC)CCCCN23)cc1OC
  Mtb betalactam = -6

# Next part:
item	SMILES	Mtb betalactam
91	COc1ccc2sc(-c3ccc(S(C)(=O)=O)cc3)c(C(=O)NCCc3c[nH]c4ccccc34)c2c1	-7
92	CC(C)(C)c1ccc(C(=O)Nc2ccc(C(=O)NCc3cccnc3)cc2)cc1	66
93	Cc1onc(-c2ccccc2)c1C(=O)Nc1nnc(C(C)(C)C)s1	-3
94	Cc1ccc(NC(=O)C(C)Oc2ccccc2)cc1S(=O)(=O)N1CCCCCC1 (stereo not given)	-8
95	C=CCC[C@H](Cc1ccc(F)cc1)C(=O)OC[C@@H](Cc1c[nH]c2ccccc12)NC(=O)[C@@H](CC=C)CC(=O)NCCO	2
96	CC1(C)CC(=O)C=C(c2ccc(I)cc2)C1	0
97	Cc1ccc(C(=O)NCC(=O)N2CCCN(C)CC2)cc1C	1
98	COc1ccccc1CNC(=O)CN1C(=O)NC2(CCC(C)CC2)C1=O (stereo not given)	-1
99	CCOC(=O)[C@@H]1[C@H]2COc3ccccc3[C@H]2N2C(=O)N(c3ccc(Br)cc3)C(=O)[C@]12C	-5
100	Cc1ccc(OCc2cc(C(=O)N3CCN(c4ccccc4)CC3)no2)cc1C	-5
101	COc1ccccc1C(CNC(=O)CN(C)S(=O)(=O)c1ccc(C)cc1)N1CCCC1 (stereo not given)	-3
102	CCn1cnnc1SCC(=O)NCC1COc2ccccc2O1 (stereo not given)	-2
103	O=C(COC(=O)/C=C/c1cccc(Cl)c1)Nc1ccc(N2CCOCC2)cc1	7
104	Cc1cc(OCCCC(=O)Nc2nnc(C3CC3)s2)ccc1Cl	-2
105	CC(=O)NC12CC3CC(C1)CC(C(=O)N1CCN(S(=O)(=O)c4ccccc4[N+](=O)[O-])CC1)(C3)C2	-10
106	COc1ccc(C2=Nn3c(nnc3-c3ccccc3F)SC2)cc1OC1CCOC1 (stereo not given)	7
107	C=C[C@@]1(C)CCC(/C(C)=C/C=C/C(C)(C)O)C[C@@H]1C(=C)C (stereo not given in full)	8
108	COc1ccccc1C(=O)OCC#CCSc1nnc(-c2cccc3ccccc23)o1	58
109	COc1ccccc1OC(C)C(=O)N1CC(=O)Nc2ccccc21 (stereo not given)	0
110	O=C(COC(=O)c1cc([N+](=O)[O-])ccc1NCCO)Nc1cccnc1Cl	-4
111	Cc1noc(C)c1COc1ccc(C(=O)NNC(=O)c2ccccc2F)cc1	-5
112	C[C@@H]1CN([C@@H](C)CO)C(=O)Cc2cc(NS(=O)(=O)c3cn(C)cn3)ccc2O[C@@H]1CN(C)C(=O)Nc1ccccc1	4
113	CC(=O)Nc1ccc(S(=O)(=O)N(C)CC(=O)N2CCN(C(=O)c3ccco3)CC2)cc1	-3
114	C[C@H]1NC(=O)[C@@]2(C)[C@@H](c3ccccc3)[C@H]3COc4ccccc4[C@H]3N2C1=O	-6
115	CC(=O)C1=C(c2ccccc2)NC(=O)NC1c1ccccc1 (stereo not given)	-7
116	COC(=O)C1=C(c2ccc(F)cc2OCc2ccccc2)C[C@@H]2CC[C@H]1N2C(=O)NCCc1ccc(F)cc1	-18
117	Cc1ccc(S(=O)(=O)NC(C(=O)N2CCOCCOCCOCC2)C(C)C)cc1 (stereo not given)	-1
118	Cc1cc(C(=O)CN2C(=O)C(=O)N(Cc3ccco3)C2=O)c(C)n1CCc1ccc(F)cc1	54
